GLA inh pH 4.5: alpha-galactosidase A (human) inhibition, pH 4.5; P06280; purified enzyme, 4-MU-alpha-Gal fluorescence, pH 4.5; activity change, negative = inhibition, % at 105 µM; 230,000 tested, under 10 active; AID 1467; inconclusive = small, poorly fitted or top-dose-only inhibition, or a rising curve; inactive = flat fitted curve, though single readings scatter; no compound was filed as active;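 note: 0% = full activity with enzyme and -100% = basal without enzyme; dose as in the result columns while the protocol names 77 µM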
Target sequence (P06280 whole entry, looked up): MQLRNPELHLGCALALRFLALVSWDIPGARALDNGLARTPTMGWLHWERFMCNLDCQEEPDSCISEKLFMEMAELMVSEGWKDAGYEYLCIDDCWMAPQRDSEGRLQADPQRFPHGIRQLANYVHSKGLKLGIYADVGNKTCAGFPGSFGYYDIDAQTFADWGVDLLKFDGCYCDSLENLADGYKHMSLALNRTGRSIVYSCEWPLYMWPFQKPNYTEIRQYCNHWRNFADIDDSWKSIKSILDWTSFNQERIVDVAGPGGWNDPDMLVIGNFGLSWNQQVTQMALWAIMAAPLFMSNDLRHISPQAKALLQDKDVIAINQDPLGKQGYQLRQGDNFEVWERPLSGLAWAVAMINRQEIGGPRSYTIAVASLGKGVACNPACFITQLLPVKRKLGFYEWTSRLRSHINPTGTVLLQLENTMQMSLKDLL
Rango-impB inh: inhibitors of Rango-importin beta complex formation. Rango CFP/YFP FRET sensor + importin beta, 45 min. Q14974. Potency, µM (doses to about 92.2 µM), for inactives: at the top dose inhibition of complex formation. hit rate 0.031% among 340,000; active = rising FRET ratio curve, often small or poorly fitted; inconclusive = mostly compound fluorescence or quenching in the first reads; inactive = flat curves in all reads;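 note: potency is the fitted concentration of half-maximal effect; 0% = DMSO wells and 100% = buffer wells lacking importin beta; nearly all actives have a fitted effect of over 15% in size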
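FRET biosensor (snurportin 1 IBB flanked by EYFP and cerulean), 50 nM, with compound 5 min, then 0.125 microM importin beta in PBS, 1 mM DTT, 0.02% Tween-20, 0.1% BSA. CFP/YFP ratio read after 45 min at room temperature; pre-read flags interference.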
miR-21 FLuc: miR-21 reporter, rising signal; HeLa miR-21 FLuc reporter, luciferase, 48 h; Potency, µM (series often up to 38.3 µM), without a hit: top-dose reporter change, positive = more light; 340,000 tested, under 10 active; active = well fitted rising curve with a large enough effect; inconclusive = small, poorly fitted or top-dose-only effect; inactive = no such curve, though single readings can be large or run the other way;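 note: % of control where 0% means no effect; miR-21 action dims this reporter so a rising signal means less miR-21 action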
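Luminescence from a firefly luciferase reporter carrying a miR-21 binding site downstream, stably expressed under a CMV promoter in HeLa cells that make miR-21 endogenously, reports miRNA modulation after 48 h compound exposure up to approximately 40uM final.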
Rango dissoc inh: inhibition of RanGTP-driven Rango-importin beta dissociation. Potency, µM (top dose mostly 46.1 µM), for the others: top-dose activity change, negative = inhibition. O95149+P62826. hit rate 0.071% among 340,000. AID 540253. Biochemical FRET Rango-importin beta, RanGTP-induced dissociation; active means falling FRET ratio curve, often poorly fitted, with flat reads before Ran was added; inconclusive means other falling curves, or compound fluorescence or quenching; inactive means flat or rising ratio curve;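 note: potency is the fitted concentration of half-maximal effect; % of control where 0% means no effect; nearly all actives have a fitted effect of over 45% in size; -100% = wells without RanGTP and RCC1; the record marks most hits as doubtful in a second field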
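Compounds preincubate 5 min with complex of recombinant Rango and importin beta in PBS with 1 mM DTT. Ran (0.6 uM) loaded with 2 mM GTP plus 0.2 uM RCC1 starts dissociation; FRET is recorded 45 min later.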
* hit, by the source's call; ? = inconclusive; · = no result given; & = joins results of further samples. A portion of the library. The share of hits here may be higher or lower than overall.

SMILES | GLA inh pH 4.5 | Rango-impB inh | miR-21 FLuc | Rango dissoc inh
CC(C)(C)NC(=O)N1CCC(CO)(Cc2ccccc2Cl)CC1 | -7.8 | -1.1% | 3.3% | -9.4%
Cc1ccccc1NC(=O)C1CCN(C(=O)N2CCOc3ccccc32)CC1 | · | 2.7% | 1.2% | 7.8%
N/C(=N\OC(=O)C(c1ccccc1)c1ccccc1)c1ccccn1 | -5.6 | 1.1% | -22.0% | 7.0%
CCOc1ccc(Cn2nnc(C(=O)NCCc3ccccc3)c2N)cc1 | -7.9 | 0.2% | -19.8% | 3.0%
Cc1ccccc1-n1ccnc1SCC(=O)Nc1cccc(S(=O)(=O)NC2=NCCC2)c1 | · | -0.9% | · | 6.0%
COC/C=C/C1=CC2=CC(=O)C(C)(OC(=O)c3cnc4ccccc4n3)C(=O)C2=CN1CCCOC(C)C (stereo not given) | 10.9&-11.9 | 5.0% | 1.5% | -18.9%
COCCNC(=O)/C(C#N)=C/c1cc(C)n(-c2ccc(C)cc2)c1C | -9.3 | 4.2% | -21.4% | -8.0%
Cc1ccc[n+](CC(=O)Nc2ccc(Cl)c([N+](=O)[O-])c2)c1 | · | 2.4% | 6.0% | 4.9%
COc1cccc(N2CCN(C(=O)C3CCN(S(=O)(=O)c4ccc5c(c4)CC(C)N5C(C)=O)CC3)CC2)c1 (stereo not given) | · | -0.3% | 12.7% | 8.1%
Cc1[nH]n(-c2ncc(-c3ccccc3)s2)c(=O)c1C(c1ccc(Cl)cc1)C(C#N)C#N (stereo not given) | 0.4 | -0.8% | -5.3% | 10.4%
O=C(N/N=C/c1cccc(OC(=O)c2ccc([N+](=O)[O-])cc2)c1)c1cccnc1 | · | 0.3% | 1.4% | -2.1%
Cc1ccc2[nH]c(=O)c3cc(C(=O)NCCN4CCN(C)CC4)sc3c2c1 | 17.4 | 1.1% | -16.6% | 9.3%
Cc1c(C(=O)N(Cc2ccco2)Cc2cccs2)oc2ccccc12 | · | -5.1% | · | 0.1%
CCOC(=O)CSc1ncnc2c1cnn2-c1ccc(Cl)cc1 | 7.6 | -1.7% | 1.8% | 8.2%
COc1cc(C(=O)Nc2ccn(C)n2)ccc1OC(F)F | · | -3.1% | · | -20.0%
COc1ccc(/C(N)=N/OC(=O)CCc2ccccc2)cc1OC | -18.0 | -0.8% | -25.4% | -18.8%
Cc1cccc(/C=N/NC(=O)c2ccc(NC(=O)c3ccccc3Cl)cc2)n1 | · | 0.4% | 1.2% | 10.3%
CCc1ccc(S(=O)(=O)/N=C2\C=C(Nc3cccc(C(=O)O)c3)C(=O)c3ccccc32)cc1 | · | 0.4% | ? | -3.8%
Cc1c(Cc2ccc3c(c2)OCO3)sc(NC(=O)c2ccc3ccccc3c2)c1C(N)=O | 8.3 | ? | -15.9% | -12.5%
COc1ccc(COC(=O)C2CC(=O)N(Cc3ccc(C)cc3)C2)cc1 (stereo not given) | · | 5.1% | 1.4% | 15.6%
Cn1c(=O)c2sccc2n2c(CCCC(=O)NCc3cccnc3)nnc12 | · | 0.0% | -0.6% | -11.1%
O=C(Nc1ccccc1-c1ccccc1)C12CC3CC(CC(C3)C1)C2 | -9.4 | -2.0% | -14.8% | 1.7%
COC(=O)c1ccc(C2c3c(oc4ccccc4c3=O)C(=O)N2CCCN2CCOCC2)cc1 (stereo not given) | -5.9 | 0.6% | -14.1% | 9.8%
Cc1cc(C)cc(N(CC(=O)NC2CCCC2)C(=O)C2(C)CC(=O)N=C3C=CC=CN32)c1 (stereo not given) | 15.5 | -4.1% | -1.1% | -9.1%
O=c1cc(-c2ccc3c(c2)OCO3)oc2ccccc12 | -1.6 | 2.2% | -38.0% | -19.1%
Cc1ccc(-c2csc(NC(=O)c3ccc(C)o3)n2)cc1 | -6.5 | 1.8% | -28.0% | -0.8%
CC(=O)OCC1=C(C(=O)O)N2C(=O)C(NC(=O)c3ccc(COc4cccc(Cl)c4Cl)o3)C2SC1 (stereo not given) | -5.3 | -1.1% | -5.4% | -6.0%
CCOC(=O)C1CCN(C(=O)c2cccc(S(=O)(=O)N3c4ccccc4CC3C)c2)CC1 (stereo not given) | · | 0.3% | · | 0.1%
O=C(OCC(=O)N1CCCC1)c1cnc(Cl)c(Cl)c1 | · | -0.2% | · | 11.4%
Cc1ccc2cc(CCNC(=O)c3ccc(S(=O)(=O)N4CCOCC4)cc3)c(=O)[nH]c2c1 | · | -1.0% | -5.4% | 4.9%
CC(=O)c1cccc(NC(=O)C(C)OC(=O)c2ccc(Br)o2)c1 (stereo not given) | · | -4.6% | · | 5.0%
Cc1cc(-c2nnc3n2N=C(c2ccc(F)cc2)CS3)n[nH]1 | -8.0 | -1.3% | -15.6% | 9.0%
CCOc1cc(S(=O)(=O)NCc2ccc3c(c2)OCO3)c(C)cc1C | -8.0 | 2.3% | 0.6% | 8.1%
Cc1cc(C)cc(Nc2ccc3nonc3c2[N+](=O)[O-])c1 | · | 2.2% | · | 0.6%
CC1CCCCN1C(=O)CN1C(=O)CSc2ccc(S(=O)(=O)N3CCOCC3)cc21 (stereo not given) | · | -0.1% | 2.6% | 8.6%
Fc1ccc(Nc2nc(-c3ccncc3)nc3ccccc23)cc1 | -7.6 | 7.4% | -7.3% | -3.0%
COc1ccc(NC(=O)CCC(=O)Nc2nnc(CC(C)C)s2)cc1Cl | · | -3.2% | -0.3% | 10.6%
CC(C)C[C@H](NC(=O)c1nc[nH]c1C(=O)NCCNC(=O)OC(C)(C)C)C(=O)CNCCNC(=O)c1[nH]cnc1C(=O)N[C@@H](C)C(=O)OC(C)(C)C | · | 0.3% | · | 3.1%
O=C(CCc1ccccc1)N1CCCC(Nc2ccc(F)cc2)C1 (stereo not given) | · | -3.9% | -0.6% | 11.1%
COc1ccc2c(c1)Sc1ccccc1N2 | 2.1 | -0.2% | -20.7% | -8.6%
CSC[C@@H]1NC(=S)N(c2ccc(C)cc2)C1=O | 4.5 | -5.9% | -8.2% | 17.7%
COC(=O)c1ccc(CSc2nnnn2C)o1 | -2.3 | 4.8% | -8.0% | 0.1%
Cn1c(CCNC(=O)c2ccc(F)cc2)nc2ccccc21 | -12.9 | 6.4% | -8.6% | 0.7%
CCN(CC(=O)NCc1cccs1)C(=O)c1ccc(S(=O)(=O)N(CC)c2ccccc2)cc1 | · | 0.1% | · | -6.7%
CCOC(=O)C1=CN(Cc2cccc(-c3ccc4c(c3)OCO4)c2)S(=O)(=O)N(C)C1C (stereo not given) | · | 2.6% | · | -20.1%
COc1ccc(CCNC(=O)c2cccc(C(=O)NCCc3ccc(OC)cc3)n2)cc1 | · | 0.1% | · | -15.9%
Cc1cccc([C@@H](NC(=O)OC(C)(C)C)C(=O)OC(C)(C)C)c1 | · | -2.9% | · | 17.3%
CCOC(=O)N1CCN(C(=O)CSc2nc(=O)n3cc(C)ccc3n2)CC1 | · | 0.9% | · | ?
CCCCN=c1sc(C(=O)OC)cc(=O)n1CCCC | 12.1 | -1.1% | -3.6% | ?
CN(C1CCCCC1)S(=O)(=O)c1ccc(NC(=O)Cn2nc(-c3ccc(F)cc3)ccc2=O)cc1 | 1.6 | -3.4% | 0.3% | -11.8%
COc1cc(/C=N/NC(=O)Cn2nnc3ccccc32)ccc1O | 5.5 | 0.9% | 9.5% | -5.2%
Nc1ccc2nc3c(=O)n(CCc4ccccc4)c(=O)[nH]c3nc2c1 | 6.4 | ? | -15.8% | ?
Cc1ccc(C)c(-n2c(-c3ccco3)n[nH]c2=S)c1 | · | 0.5% | · | 17.5%
CCN1CCN(C(CNC(=O)c2ccc3c(c2)OCO3)c2cccnc2)CC1 (stereo not given) | 9.9 | -0.7% | -34.9% | -11.7%
Cc1cccc(C)c1NC(=O)c1cc(-c2ccccn2)nc2ccccc12 | -8.5 | -2.6% | 16.6% | -2.3%
CCOC(=O)c1sc(NC(=O)C2CC2)cc1C | -4.6 | -1.3% | -53.2% | -12.6%
O=C(N=C1SC2CS(=O)(=O)CC2N1c1ccc(Br)cc1)C1CCCO1 (stereo not given) | · | -0.6% | 4.4% | 0.1%
COc1cc(C(=S)N2CCOCC2)cc(OC)c1OC | -3.4 | 2.3% | 0.2% | 0.1%
O=C(NCCCn1ccnc1)/C(=C\c1cccnc1)NC(=O)c1ccco1 | 7.3 | 0.2% | -2.6% | -6.2%
CCOc1ccc(/C=N/NC(=O)c2[nH]c3ccc(C)cc3c2C)cc1 | · | -0.2% | 5.4% | -11.1%

The final 4 compounds of the section above lead into the next.
SMILES | GLA inh pH 4.5 | Rango-impB inh | miR-21 FLuc | Rango dissoc inh
O=C(N=C1SC2CS(=O)(=O)CC2N1c1ccc(Br)cc1)C1CCCO1 (stereo not given) | · | -0.6% | 4.4% | 0.1%
COc1cc(C(=S)N2CCOCC2)cc(OC)c1OC | -3.4 | 2.3% | 0.2% | 0.1%
O=C(NCCCn1ccnc1)/C(=C\c1cccnc1)NC(=O)c1ccco1 | 7.3 | 0.2% | -2.6% | -6.2%
CCOc1ccc(/C=N/NC(=O)c2[nH]c3ccc(C)cc3c2C)cc1 | · | -0.2% | 5.4% | -11.1%
CC1CCc2sc(C(=O)NCc3ccc(F)cc3)cc2C1 (stereo not given) | -13.2 | -4.1% | -24.1% | ?
CCCNc1nc2ccccc2c(=O)[nH]1 | 3.9 | 5.8% | -4.1% | -6.9%
O=C(NN=C1CCCC1)c1cc(Cl)cc(Cl)c1O | · | 6.1% | -8.6% | -10.4%
CCOC(=O)N1CCN(C(=O)c2ccccc2NC(C)=O)CC1 | 0.1 | 3.2% | -7.2% | 1.5%
COC(=O)c1ccc(NC(=O)C2CCN(C(=O)c3cc(OC)c(OC)c(OC)c3)CC2)cc1 | -0.9 | -1.8% | 1.0% | 8.6%
CCCN(CCC)S(=O)(=O)c1ccc(C(=O)Nc2nc(-c3ccccc3)c(C(=O)OCC)s2)cc1 | -3.5 | -0.5% | -1.3% | 7.6%
CCCN1C(=O)/C(=C/c2ccc(N3CCCC3)c(C)c2)NC1=S | -27.8 | ? | 6.6% | ?
Cc1ccc(CNC(=O)c2ccccc2NC(=O)C2=CSCCO2)cc1 | · | 0.6% | 11.1% | 11.5%
Cc1ccc(C2c3c(C)nn(-c4ccc([N+](=O)[O-])cc4)c3N=C3C(=O)Nc4ccccc4N32)cc1 (stereo not given) | -18.5 | · | -0.4% | ·
Cc1cccc(NC(=S)NNc2cccc(Cl)c2)c1 | · | 2.1% | 3.5% | -16.0%
COc1cccc(C(=O)Nc2ccc(F)cc2F)c1 | -0.8 | -0.4% | -54.8% | 0.3%
CCc1ccc(-n2c(SCC(=O)Nc3ccc(C(=O)O)cc3)nnc2-c2ccncc2)cc1 | 0.1 | 1.1% | -1.8% | 0.3%
CC(C)C[C@H](NC(=O)NCc1ccc(F)cc1)C(=O)O | -4.1 | 2.8% | -1.4% | -16.4%
O=C(Nc1ccc(C(=O)N2CCCCC2)cc1)c1ccc([N+](=O)[O-])cc1 | · | -5.2% | -0.3% | 9.5%
Cc1nn(-c2ccccc2)c(N2CCCC2)c1/C=N/NC(=O)c1cc2ccccc2cc1O | -7.3 | ? | -3.5% | ?
CCCCS/C(=C(/C#N)C(N)=O)c1cc2c([nH]1)CCCC2 | 0.2 | ? | ? | ?
O=C(COC(=O)CNC(=O)c1ccccc1F)NC12CC3CC(CC(C3)C1)C2 | · | 0.6% | · | -0.5%
CCCCCCN1C(=O)C(O)=C(C(C)=O)C1c1ccccc1[N+](=O)[O-] (stereo not given) | 9.9 | 0.0% | -2.7% | -2.7%
Cc1ccc(-n2ncc3c(=O)n(CC(=O)OCc4ccccc4)cnc32)cc1 | 2.4 | 2.4% | -7.3% | 0.6%
O=C(Nc1cc(Cl)cc(Cl)c1)c1coc(=O)c(Br)c1 | 0.0 | ? | -0.3% | ?

Pulled one by one from above:
SMILES | GLA inh pH 4.5 | Rango-impB inh | miR-21 FLuc | Rango dissoc inh
O=C(Nc1cc(Cl)cc(Cl)c1)c1coc(=O)c(Br)c1 | 0.0 | ? | -0.3% | ?
O=C(COC(=O)CNC(=O)c1ccccc1F)NC12CC3CC(CC(C3)C1)C2 | · | 0.6% | · | -0.5%
CCCCCCN1C(=O)C(O)=C(C(C)=O)C1c1ccccc1[N+](=O)[O-] (stereo not given) | 9.9 | 0.0% | -2.7% | -2.7%
